Assay outcomes as filed in PubChem.
TRPV1 PAM: potentiators of human vanilloid receptor 1 (TRPV1); TRPV1-expressing cells, Fluo-8 calcium influx, capsaicin EC20 potentiation; host cell line not named in the record; control for the full effect not named in the record; AID 540277; potentiation, % at 8.33 µM; actives 0.02% (n = 320,000); active means potentiation above 80%; inconclusive means 30% to 80%; inactive means below 30%; also: 0% is about no effect
Target sequence (Q8NER1 whole entry, looked up): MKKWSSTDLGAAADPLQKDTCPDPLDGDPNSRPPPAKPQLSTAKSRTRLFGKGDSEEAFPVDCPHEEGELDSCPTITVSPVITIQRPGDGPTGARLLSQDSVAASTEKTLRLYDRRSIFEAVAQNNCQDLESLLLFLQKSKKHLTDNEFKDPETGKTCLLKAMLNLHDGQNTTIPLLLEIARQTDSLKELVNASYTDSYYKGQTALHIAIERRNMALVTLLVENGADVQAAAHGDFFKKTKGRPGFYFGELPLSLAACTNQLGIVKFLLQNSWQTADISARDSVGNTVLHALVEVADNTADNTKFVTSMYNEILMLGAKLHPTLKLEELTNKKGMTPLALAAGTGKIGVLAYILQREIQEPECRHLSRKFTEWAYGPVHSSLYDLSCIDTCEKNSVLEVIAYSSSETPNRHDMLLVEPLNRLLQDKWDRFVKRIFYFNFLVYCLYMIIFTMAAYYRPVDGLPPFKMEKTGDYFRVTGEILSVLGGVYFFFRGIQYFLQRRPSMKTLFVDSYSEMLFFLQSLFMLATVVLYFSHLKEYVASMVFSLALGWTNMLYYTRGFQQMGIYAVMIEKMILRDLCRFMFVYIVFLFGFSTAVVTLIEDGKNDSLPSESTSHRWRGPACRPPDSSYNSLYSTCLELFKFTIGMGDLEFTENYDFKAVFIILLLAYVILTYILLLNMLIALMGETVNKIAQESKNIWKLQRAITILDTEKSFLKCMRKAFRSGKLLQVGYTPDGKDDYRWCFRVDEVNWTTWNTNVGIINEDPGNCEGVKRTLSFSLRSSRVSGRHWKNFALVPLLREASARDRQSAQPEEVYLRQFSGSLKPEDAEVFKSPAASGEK
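Fluo-8 calcium influx in TRPV1-expressing cells, kinetic read (ex 480/em 520 nm). Compound added and read 3 min for agonist activity, followed by capsaicin at EC20 final and 2 min further read for enhancement.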
D2 PAM: potentiates the human D2 dopamine receptor allosterically | potentiation, % (no concentration beside the values) | AID 624464 | DiscoveRx D2 beta-arrestin cells, luminescence, 90 min; 100% = 57 uM dopamine signal | P14416 | actives 0.23% (n = 360,000); active = potentiation of 50% or more; inconclusive = 30% to 50%; inactive = 30% or less;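 also: compound concentration not given in the record; tested on top of an EC20 dose of dopamine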
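PathHunter beta-arrestin assay in DiscoveRx D2 cells. Compounds were added with an EC20 of dopamine (50 nM final) for 90 min at 37 deg C. Luminescence was read 1 h after detection reagent, with 57 uM dopamine as the EC100 control.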
TRPML1 blocker: blocks the human TRPML1 channel; TRPML1-inducible cells, Ca2+ dye fluorescence, FDSS; hits give low values; inhibition of EC80 agonist-evoked calcium signal; actives 0.02% (n = 390,000); Q9GZU1; activity change, negative = inhibition, % (test concentration not listed); in the data active means activity change below about -50%; inconclusive means about -30% to -50%; inactive means above about -30%;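 also: stimulus is agonist 54-4 at its EC80 concentration; % is scaled to controls: 0 for no effect and ±100 for the full control effect; compound concentration not given in the record; the text of the record puts the active cut at -80%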
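Calcium fluorescence in TRPML1-DL cells induced overnight with Tet: a 110 s read after compound pin addition, then a 110 s antagonist read after challenge with 54-4 at 4 uM final (EC80).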
Six1-Eya2 blk: blocks human Six1 binding to Eya2. Q15475+O00167. AlphaScreen GST-Six1/His-Eya2 binding, biochemical; hits give low values; control for the full effect not named in the record. activity change, % (no concentration beside the values). actives 0.56% (n = 360,000). AID 651725; in the data active = activity change below about -65%; inconclusive = about -30% to -65%; inactive = above about -30%; also: % is scaled to controls: 0 for no effect and ±100 for the full control effect; compound concentration not given in the record
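AlphaScreen with GST-Six1 and His-Eya2 (5X mix: 250 nM and 500 nM), glutathione donor and nickel acceptor beads; buffer 50 mM Tris pH 8.0, 300 mM NaCl, 1 mM TCEP; 1 h at 37 C in the dark.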
TRPML1 ag: human mucolipin-1 channel agonism; AID 624414; actives 0.12% (n = 410,000); activation, % (concentration not given with the values); TRPML1-expressing cells, Ca2+ dye fluorescence, FDSS; host cell line not named in the record; reference of the full effect not given here; in the data active = activation above about 50%; inconclusive = about 30% to 50%; inactive = below about 30%; also: 0% is about no effect; the text of the record puts the active cut at 80%
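TRPML1-DL cells, Tet-induced overnight (~16 h, 37 degrees C), loaded 45-90 min at room temperature with Ca8 no-wash calcium dye plus quencher. FDSS fluorescence: 10 s baseline, compound pin-transfer, 110 s agonist read, then EC80 54-4 (4uM final) and 110 s antagonist read.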
CtBP-E1A inh: inhibitors of CtBP/E1A interaction | actives 0.49% (n = 340,000) | AlphaScreen GST-E1A/His-CtBP binding, 1536-well; hits give low values; control for the full effect not named in the record | activity change, % (concentration not given with the values); in the data active means activity change below about -65%; inconclusive means about -30% to -65%; inactive means above about -30%; also: % is scaled to controls: 0 for no effect and ±100 for the full control effect
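Steps: dispense buffer (Tris pH 8.0, NaCl 300 mM, TCEP 1 mM, BSA, Tween 20); add 5X protein mix (GST-E1A, His-CtBP, 125 nM each); pin 23 nL compound; 2 h at 37 °C, dark; add 5X beads (50 ug/mL); 1 h; read.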
* marks the source's active call; other numbers are inactive results; ? = inconclusive; . = not tested or not shown.

Structure	TRPV1 PAM	D2 PAM	TRPML1 blocker	Six1-Eya2 blk	TRPML1 ag	CtBP-E1A inh
Cc1csc(NC(=O)CSc2nc(=O)[nH]c3c2CCCC3)n1	11.6	-1.6	17.8	-5.4	-1.3	-9.3
Cc1nn(CC2CC2)c(=O)n1-c1ccccc1	-4.8	1.2	0.9	-0.8	-1.0	-6.4
COc1ccc(NC(=O)CSCc2ccc(C#N)cc2)c(OC)c1	-9.3	-19.2	23.1	-3.5	-0.9	1.6
COC(=O)c1c(C(=O)OC)c(-c2cccc(Cl)c2)n2c1CS(=O)C2 (stereo not given)	?	-0.3	-14.8	6.2	-0.3	0.0
Cc1ccc(C)c(C(=O)CC2(O)C(=O)Nc3ccccc32)c1 (stereo not given)	-8.7	-3.8	-7.4	-5.0	0.4	1.3
Fc1ccc(C(c2nnnn2Cc2ccco2)N2CCN(C3CCCCC3)CC2)cc1 (stereo not given)	6.5	-35.2	4.0	-0.7	0.2	-1.4
O=C(Nc1ccc(OCC(F)(F)C(F)F)c(C(F)(F)F)c1)c1ccc(Cl)cc1	.	-3.0	-0.5	23.0	1.5	8.9
COc1ccc(-c2nc3cc(C)ccn3c2NC2CCCCC2)cc1SC1CCCCC1	.	-7.8	28.3	-17.2	0.3	-10.6
CCN(CC(=O)Nc1ccc(NC(C)=O)cc1)C(=O)c1cccc2ccccc12	3.1	-0.8	37.2	5.9	3.9	8.3
O=C(Nc1ccc(Cl)cc1)NC1CCS(=O)(=O)C1 (stereo not given)	-5.1	-7.5	6.5	-0.4	-0.8	1.8
COc1ccc(C(=O)Nc2cccc(/C(C)=N/NC(=O)c3ccc([N+](=O)[O-])cc3)c2)cc1OC	10.7	-4.4	-16.2	0.6	-1.1	-1.6
O=C(CSC1CC(=O)N(CCc2ccccc2)C1=O)Nc1ccc(Br)cc1 (stereo not given)	4.0	-26.7	9.0	-0.2	2.4	-9.8
Nc1c(C(=O)Nc2ccccc2)c2nc3ccccc3nc2n1-c1ccc(O)cc1	-2.5	-7.1	.	?	.	?
COc1ccccc1Cn1c(C)c(C(=O)NCCC#N)sc1=O	.	-4.9	.	5.5	-0.5	-21.3
C/C(CC(=O)Nc1ccc(Cl)cc1Cl)=N\NC(=O)C(=O)NCCO	2.7	-5.1	-8.6	0.4	-0.4	9.8
Nc1ncnc2c1ncn2[C@@H]1O[C@H](C(=O)NS(=O)(=O)c2cccs2)[C@@H](O)[C@H]1O	.	-6.3	20.1	0.4	0.2	-20.7
Cc1nn(C(=O)c2cccnc2)c(C)c1C	-3.8	-8.8	0.0	-0.1	-1.3	8.2
O=C(O)c1ccc2c(c1)OCCOCCOCCOCCOCCO2	5.4	-6.8	.	17.9	.	8.6
CCc1cccc(CC)c1C(O)c1cccnc1 (stereo not given)	22.6	-16.1	-18.9	1.0	3.8	1.5
CCOC(=O)C1=C(C)Nc2ccccc2N=C1NC(=O)Cc1ccc(OC)cc1	12.1	1.2	-16.7	11.2	-0.8	0.0
O=C(CC12CC3CC(C1)CC(CC(=O)N1CCCC1)(C3)C2)N1CCCC1	0.1	1.7	-4.6	4.8	0.8	0.3
Cc1c(Nc2cc(N3CCCC(C)C3)c3nonc3c2[N+](=O)[O-])c(=O)n(-c2ccccc2)n1C (stereo not given)	-15.1	-8.0	-14.9	-6.5	0.4	11.3
CN(C)CCn1c(NC(=O)c2ccc(Cl)cc2)nc2ccccc21	1.6	-26.6	-22.7	13.2	0.1	46.0
CCCCn1c(SCC(=O)Nc2cc(NC(=O)c3ccco3)ccc2C)nc2ccccc2c1=O	.	-6.9	-2.8	-5.0	2.7	-0.5
CNC(=S)NNC(=O)c1ccc(=O)n(Cc2ccc(Cl)cc2Cl)c1	-1.6	-9.6	25.4	7.1	0.8	-13.5
Cc1cc(OCC(O)CN2C(C)CCCC2C)ccc1C(C)C (stereo not given)	-3.6	-3.6	-12.7	-9.6	0.9	-0.3
CCCCCc1nnc(NC(=O)Cc2cccs2)s1	14.6	3.6	-1.9	-12.1	-0.3	4.9
Cn1c(CNC(=O)c2cccs2)n[nH]c1=S	16.9	0.9	-10.2	1.9	0.0	-3.3
O=C1CCCc2c1sc1nc3n(c(=O)c21)CCCCC3	22.3	-9.2	-16.1	-1.8	4.0	-1.7
O=C(O)c1ccccc1C(=O)NNc1ccc(F)cc1	.	-8.8	4.0	3.8	0.4	0.7
Cn1cccc1Cc1nnc(SCC(=O)Nc2ccc(F)cc2)n1-c1ccc(F)cc1	13.0	-4.8	-3.6	-14.5	0.5	-12.8
CCCC(=O)N1CCCC1(C)C(=O)Nc1ccc(C)c(C)c1 (stereo not given)	.	3.8	.	8.5	-0.9	7.8
Cc1ccccc1C(C(=O)NC1CCCCC1)N(C(=O)CNC(=O)c1ccco1)c1cccnc1 (stereo not given)	6.5	-4.3	3.4	2.5	-0.2	-1.9
O=C(COc1ccc2ccc(=O)oc2c1)N1CCN(C(=O)C2COc3ccccc3O2)CC1 (stereo not given)	-8.2	2.6	19.4	-0.6	-0.1	-7.8
O=C(Nc1cccc(NC(=O)c2cccs2)c1)c1ccco1	1.6	9.2	-8.6	-1.5	-0.4	0.0
Cc1cccc(CN(C)C[C@@H]2OCc3cnnn3CCCC(=O)N([C@@H](C)CO)C[C@H]2C)c1	.	4.1	11.8	5.0	-0.5	5.0
O=C(O)CCn1c(=S)oc2ccccc21	15.3	-3.2	8.3	-2.5	-0.3	32.5
CCN1CCN(CCc2nc3cc(NC(=O)COc4ccc(Cl)cc4)ccc3n2C)CC1	-1.9	-9.4	4.4	-1.6	0.6	.
Cc1cccc(C)c1NC(=O)CCc1nnc2ccc(N3CCCC3)nn12	12.2	-2.0	7.9	-3.0	-0.9	-0.7
N#C/C(=C\c1cn(-c2ccccc2)nc1-c1cccnc1)c1nnc2n1CCCCC2	-11.3	15.8	-5.6	-2.9	1.3	-7.3
COc1cccc(-c2cnc3c(NC(C)=O)cc(-c4ccc(C(=O)N5CCOCC5)cc4)cn23)c1	.	-8.9	.	-4.6	-0.6	-16.1
Cc1ccccc1-c1nc(CS(=O)(=O)CC(=O)N(C)C2CCCCC2)c(C)o1	9.8	-6.7	39.8	-2.4	0.7	-7.7
COc1cc2c(cc1OC)C(CC(=O)O)N(C(=O)CC1CCCC1)CC2 (stereo not given)	1.6	-3.2	9.1	6.7	0.4	0.8
CC(C)(C)C(=O)N1CCC[C@@]1(CO)C(=O)O	16.6	-3.8	1.7	-3.0	0.9	10.9
CCOc1ccc(N(C)S(=O)(=O)c2ccc(-c3cc(C)no3)s2)cc1	-4.9	-8.4	8.1	12.2	1.6	.
Cc1ccc(N(Cc2ccccc2)C(=O)c2cccc(S(=O)(=O)N3CCOCC3)c2)cc1	-26.1	-2.0	43.4	-8.9	1.0	-1.7
CC(C)NC(=O)COCc1cc(-c2ccc3c(c2)OCO3)on1	-16.6	-2.3	-4.4	0.0	-1.5	11.6
CC1CCCC(CC(=O)O)(CC(=O)O)C1 (stereo not given)	?	-1.6	-15.1	-3.5	0.4	0.0
O=C(COc1ccc2c(c1)OCO2)NC12CC3CC(CC(C3)C1)C2	-3.5	-11.8	34.2	-13.6	2.9	-4.3
O=C(CSc1ccc2nnc(-c3cccnc3)n2n1)Nc1ccccc1C(F)(F)F	1.2	2.8	-7.0	-21.3	0.9	?

Next part
Structure	TRPV1 PAM	D2 PAM	TRPML1 blocker	Six1-Eya2 blk	TRPML1 ag	CtBP-E1A inh
CC1CC(=O)Nc2ccc([N+](=O)[O-])cc2N1C (stereo not given)	0.0	-3.3	2.2	13.1	0.1	8.2
O=C(CNC(=O)c1ccco1)NCC(=O)OC(C(=O)c1ccccc1)c1ccc(Cl)cc1 (stereo not given)	1.1	-13.7	-1.4	26.0	0.3	6.6
CCc1ccc(OCC(=O)NC(=S)Nc2cccc(CO)c2)c(Br)c1	-6.4	6.2	-4.9	-2.6	0.5	8.8
CCCS(=O)(=O)Nc1c(OC)ccc2c1c(C(=O)OCC)c(C)n2C	-9.3	-4.6	-8.9	-2.5	0.0	-10.6
CN(C)/N=C1\CCS(=O)(=O)c2sccc21	9.8	-11.9	4.8	23.2	0.7	.
CC(c1ccc(Br)cc1)N1CC23C=CC(O2)C(C(=O)O)C3C1=O (stereo not given)	.	-1.6	14.8	6.8	0.3	4.9
O=C(Nc1ccccc1N1CCCCC1)C1CCN(C(=O)c2ccc(Cl)cc2)CC1	5.4	-35.0	22.4	-6.9	2.3	-1.9
CCc1[nH]nc2c1C(c1cccc(OC(=O)N3CCOCC3)c1)C(C#N)=C(N)O2 (stereo not given)	-0.3	-0.3	3.1	-4.1	0.0	7.7
O=C1CCC/C(=N\NC(=O)c2ccc(COc3cccc4cccnc34)cc2)C1	-2.8	-1.0	3.1	-21.4	-0.6	-14.8
CC(NC(=O)C(Cc1ccccc1)NC(=O)c1ccccc1)C(=O)O (stereo not given)	5.2	-7.0	-6.6	4.8	-0.7	9.0
C=C(C(=O)c1ccccc1)C(NC(C)(C)C)c1ccccc1 (stereo not given)	.	-16.3	-7.3	-8.8	-0.2	28.0
CCCS(=O)(=O)c1c(S(=O)(=O)CCC)c2c(N)cccn2c1C(=O)c1ccccc1	-10.5	-17.5	16.8	-4.3	1.1	-9.4
